MT1-MMP act inh – blockers of MT1-MMP proenzyme processing, primary screen, HT1080 RFP-PRO-GFP cells, GFP/RFP fluorescence; Matrix metalloproteinase-14 (Homo sapiens), P50281; actives 0.061% (n = 360,000); AID 651647, 2012; GFP/RFP ratio change, % at 20 µM; GFP/RFP ratio fluorescence, overnight; percent of plate control window, DMSO zero;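 active = GFP/RFP ratio change of at least 30% with cell ATP level not reduced by more than half and red fluorescence within 50% of control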; also: strong numbers were not always called active
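Test system: HT1080 RFP-PRO-GFP cells; Benchmarks: DMSO and RFP-L50D-GFP cell wells; Timing: cells overnight before dosing, compound overnight, 37 °C, 5% CO2; Compound: one 20 µM compound dose with 1% DMSO; Read-out: GFP/RFP fluorescence ratio.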
HIV Env fusion – inhibitors of HIV-1 Env-driven cell-cell fusion, primary screen, HeLa-JRFL effector, CEM21 target cells, luciferase. inhibition, % at 12.3 µM. actives 1.1% (n = 360,000);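 active = mean replicate inhibition score of at least 50 and every replicate individually at or above 50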;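 also: 0% = plate neutral controls and 100% = maraviroc near 300 nM; one replicate is shown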
Rce1 inhib – yeast Rce1p protease inhibitors, primary screen, biochemical, fluorescence, cell-free homogeneous; yeast membranes, quenched prenylated peptide cleavage fluorescence; calls only; actives 0.27% (n = 290,000);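 active = fall in fluorescence gain of 50% or more versus controls, with final raw signal at or below 3038400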;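 also: plate controls were neutral control wells for no effect and wells lacking membranes for full effect; tested at 10 µM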
Target sequence (Q03530 whole entry, looked up): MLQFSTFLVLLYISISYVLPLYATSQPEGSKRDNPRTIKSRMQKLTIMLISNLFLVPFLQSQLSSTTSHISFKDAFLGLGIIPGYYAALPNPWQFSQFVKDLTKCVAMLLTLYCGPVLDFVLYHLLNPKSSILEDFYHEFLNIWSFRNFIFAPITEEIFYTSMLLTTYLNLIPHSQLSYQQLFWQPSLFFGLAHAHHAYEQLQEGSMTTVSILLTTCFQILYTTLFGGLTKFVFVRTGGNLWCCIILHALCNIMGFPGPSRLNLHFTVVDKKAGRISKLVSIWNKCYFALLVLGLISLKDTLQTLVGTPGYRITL
Yeast UUG start – modulators of yeast start codon fidelity, primary screen, whole organism, S. cerevisiae, single point, plate reader. activity score, % at 18.7 µM. AID 602363, 2012. S. cerevisiae UUG-firefly luciferase reporter, luminescence/redox ratio. actives 0.13% (n = 350,000);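 active = replicate mean at a twofold rise or more, about +100% in these data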;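 also: firefly luciferase made from a UUG start codon reports start codon fidelity; reporter light over untreated wells divided by growth signal over untreated wells; some hits fall short of that in this replicate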
eIF4H FP inh – human eIF4H binding inhibitors, primary screen, translation initiation inhibitor project, biochemical, uHTS, fluorescence polarization | Eukaryotic translation initiation factor 4H (Homo sapiens), Q15056 | eIF4H fluorescence polarization binding assay | inhibition, % at 35 µM | actives 0.94% (n = 290,000) | AID 2012, 2009;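 active = 50% or more with normal probe brightness, or confirmed in later tests; about a fifth of its hits are not listed in these tables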;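 also: calls also rest on retests at 20 µM and on dose response follow-up; 0% = protein and probe with vehicle and 100% = probe without protein; strong numbers were not always called active; many hits fall short of the cut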
PABP FP inh – PABP poly(A) RNA binding inhibitors, primary screen, biochemical, fluorescence polarization, uHTS | inhibition, % at 35 µM | actives 1% (n = 290,000) | AID 2014, 2009;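 active = 50% or more with normal probe brightness, or confirmed in later tests; about a fifth of its hits are not listed in these tables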;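 also: calls also rest on retests at 20 µM and on dose response follow-up; controls were probe without protein and protein plus probe with vehicle; some compounds called inactive have numbers as strong as hits; many hits fall short of the cut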
CSC inhib – cancer stem cell viability inhibitors, primary screen, luminescence | cancer stem cell-like cells viability | inhibition, % at 7.5 µM | actives 1.1% (n = 300,000);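 active = mean at 75% or more and at least half the replicates too; tested in HMLE shEcad cells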;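 also: 0% = median of negative and 100% = median of positive control wells; the first replicate is given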
eIF4H FP inh retest – second read-out of eIF4H FP inh, no call of its own (marks repeat the call); inhibition, %; compound at 20 µM; confirmation average;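 mean of two retest wells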
PABP FP inh retest – also measured in PABP FP inh; calls as there; inhibition, %; compound at 20 µM; confirmation repeats;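 mean of two retest wells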
MT1-MMP act inh RFP – also measured in MT1-MMP act inh; calls as there; RFP signal change, %; measured here: RFP expression control read;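 0 = vehicle wells; hits needed this value within 50% of zero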
* marks the source's active call; other numbers are inactive results; i = inactive; / = not tested or not shown; & = joins results of further samples; [ ] = dose if it differs, or a comment.

SMILES	MT1-MMP act inh	MT1-MMP act inh RFP	HIV Env fusion	Rce1 inhib	Yeast UUG start	eIF4H FP inh	PABP FP inh	CSC inhib	others
COc1ccc(-c2nc(NC(=O)c3nc4nccc(C)n4n3)sc2C)cc1	4	2	5	i	-34	-2	11	1
Cc1ccc2nc(C)cc(C(=O)N3CCCC(CO)(Cc4ccccc4C)C3)c2c1 (configuration not stated)	-3	-1	8	i	6	7	-1	-20
CC(=O)c1ccccc1NC(=O)CC1(CC(=O)O)CCCCC1	3	3	12	i	-5	2	4	-14
CCOC(=O)Cn1cc(/C=C/[N+](=O)[O-])c2ccccc21	-4	2	-137	i	-3	-12	-11	-8
CCOC(=O)N[C@H](Cc1c[nH]c2ccccc12)C(=O)NC1CC1	0	3	12	i	-2	-8	5	-3
COc1ccccc1C(=O)NCCC(=O)NC1CCCCC1C (configuration not stated)	6	-1	-38	i	-15	/	/	-6
C[C@H]1CN([C@@H](C)CO)C(=O)CCCn2nncc2CO[C@@H]1CN(C)C(=O)Cc1ccccc1	1	4	4	/	-4&15	/	/	/
COc1cccc(CNc2ccc(F)c(Cl)c2)c1O	-3	-6	-36	i	0	/	/	-10
COc1cccc(NC(=O)CN2C(=O)C(=O)N(C3CCCC3)C2=O)c1	-3	5	/	/	-5	/	/	9
COc1ccccc1N1CCN(C(=O)c2ccc(NC(C)=O)cc2)CC1	3	3	/	i	2	-10	1	/
CCCCN1CN=C(Nc2nc3ccccc3o2)NC1	-4	-3	12	i	-21	-6	-2	/
CCC(=O)NC(NC(=O)CC)C(Cl)Cl	0	-3	63	i	-16	-11	0	/
O=C(COc1ccccc1)Nc1ccccc1C(=O)NCc1ccco1	7	7	-47	i	/	2	16	8
COc1ccc(-n2c(N3CCN(C)CC3)nc3sc4c(c3c2=O)CCCCC4)cc1	-6	-7	-116	i	1	-12	4	23
O=c1[nH]c2cc3c(cc2cc1CN(CCN1CCOCC1)C(=S)NCC1CCCO1)OCO3 (configuration not stated)	-3	1	3	i	-17	2	-5	7
COc1ccc(C2C(C#N)=C(N)Oc3c2c(C)nn3-c2ccccc2)cc1Cn1nc(C)c([N+](=O)[O-])c1C (configuration not stated)	-1	0	/	i	-21	-2	8	-1
O=C(c1ccccc1)c1ccc(OCC(O)CNC2CCCc3ccccc32)cc1 (configuration not stated)	3	2	11	i	/	-5	1	-1
O=C(COc1ccc(Br)cc1)NCCNC(=O)c1cccnc1	-1	2	i	i	-18	2	-2	11
O=C(c1cc2nc(C3CC3)cc(C(F)(F)F)n2n1)N1CCCC1	2	3	/	i	-11	-6	-9	-1
N#C/C(=C\Nc1ccc(Cl)cc1)S(=O)(=O)c1ccccn1	1	3	-17	i	/	-3	11	0
CC1(O)CC(C)(C)C(C#N)C(=O)N1 (configuration not stated)	0	4	-5	/	-8	/	/	/
CCCN1CCN(C(=O)Nc2cccc(C(F)(F)F)c2)CC1	2	5	-11	i	-3	6	-16	-2
COc1ccc(-n2c(N)c(C(=O)NCc3cccnc3)sc2=S)cc1	7	1	6	i	-15	-9	-6	-14
O=C(Oc1cccc(NC(=O)c2cccs2)c1)c1cccc(S(=O)(=O)N2CCCC2)c1	0	1	1	i	/	2	-2	-4
NC(=O)c1nsc(C(=O)N(c2ccc(F)cc2)C(C(=O)NCC2CCCO2)c2c[nH]c3ccccc23)c1N (configuration not stated)	1	1	13	i	3	4	8	-5
Cc1ccccc1NC(=O)CSc1nnc(-c2ccco2)c(-c2ccco2)n1	-10	4	/	i	-8	99*	69*	-1	eIF4H FP inh retest=104*;PABP FP inh retest=99*
CC(C)(C)N1C(=O)c2ccc(C(=O)Nc3ccc(O)cc3)cc2C1=O	1	-11	-91	i	-10	-6	3	13
Cc1ccc(-c2nnn(CC(=O)N(Cc3ccco3)C(C(=O)NC(C)(C)C)c3ccncc3)n2)o1 (configuration not stated)	-9	-1	7	i	/	8	-6	-7
O=C(Nc1ccccc1)c1cccc2c(-c3cccnc3)coc12	4	-3	3	/	-7	/	/	/
O=C(NC1CCCC1)c1ccccc1OCc1ccccc1	-4	-10	20	i	-2	5	-7	64
Cc1noc(C)c1COC(=O)C1CCN(S(=O)(=O)c2ccc(F)cc2)CC1	2	2	0	/	-6	/	/	/
O=C(O)C1C2C=CC(C2)C1C(=O)N1CCOCC1 (configuration not stated)	-1	2	/	i	-1	-2	-2	-12
O=C1N=c2ccc([N+](=O)[O-])cc2=C1c1sc(=O)[nH]c1O	-4	1	-3	/	38	7	35	-12
CC(=O)NC(C)(c1ccccc1)c1nc(-c2ccc(S(C)(=O)=O)cc2)cs1 (configuration not stated)	-3	3	-20	/	-15	/	/	/
O=C(O)CC/C(=N\Nc1ccc(S(=O)(=O)N2CCCC2)cc1[N+](=O)[O-])c1cccs1	34	-9	9	/	-17	-6	14	/
Cn1nc(C(=O)Nc2nc3ccccc3[nH]2)c2ccccc2c1=O	3	7	-27	i	/	2	0	12
COc1ccc(CN2CCC(Cc3ccccc3)CC2)cc1OC	-1	-1	0	i	16	6	-15	10
COCCN1Cc2cccc(C(=O)Nc3ccccc3OC)c2C1=O	-3	-3	-25	i	-8	0	-1	6
CCC1CCCCN1Cc1nc2c(c(=O)n(C)c(=O)n2C)n1CCCc1ccccc1 (configuration not stated)	0	-8	17	i	-17	-3	2	/
CCC(=O)N(CCc1ccc(OC)c(OC)c1)Cc1cc2ccc(C)cc2n2nnnc12	0	-6	6	i	/	-2	-1	-3
Cc1cc2cc3c(C)cc(=O)oc3c(C)c2o1	-1	1	-26	i	-11	-3	-6	-11
COc1ccc(NC(=O)CSc2n[nH]c(C(C)C)n2)c([N+](=O)[O-])c1	-2	-4	-24	i	-19	-13	-16	-23
Cc1n[nH]c(C)c1Sc1ccccc1N=Cc1cc(Cl)cc([N+](=O)[O-])c1O	-2	-2	/	i	-4	3	41	13
COC(=O)c1ccc(C(=O)OC)c(NC(=O)CSCc2ccccc2Br)c1	-2	-8	/	i	-13	-11	-7	-10
O=C(c1ccccc1F)N1CCC2CC1c1cc(-c3ccc4c(c3)OCO4)ccc12 (configuration not stated)	3	-8	-8	/	-8	/	/	/
CCN(C(=O)COC(=O)c1cccc(NS(=O)(=O)c2ccc(F)c(F)c2)c1)C1CCS(=O)(=O)C1 (configuration not stated)	/	/	/	i	/	-12	3	-8
O=C(COC(=O)c1cc([N+](=O)[O-])ccc1Cl)NC1CCCC1	0	1	-13	i	-3	9	2	-6
CCc1nnc(NS(=O)(=O)c2ccc(N/C=C/C(=O)c3ccc(C)cc3)cc2)s1	5	3	-92	i	-10	0	-6	1
Cc1cccc(CCNC(=O)C2CCN(S(=O)(=O)c3cccc4cccnc34)CC2)c1	-5	-3	-7	i	-8	-3	11	-4
CN(CC(=O)Nc1ccc(Cl)c(Cl)c1)C(=O)CC1OC(=O)c2ccccc21 (configuration not stated)	2	2	10	i	-13	/	/	-5
COc1ccccc1CNC(=O)c1ccc2nc(N3CCOCC3)sc2c1	-3	-2	-39	i	-14	-8	-2	-7
COc1cc(NS(=O)(=O)c2cn(C)cn2)cc(OC)c1	-4	5	-4	i	1	4	1	-7
O=[N+]([O-])c1ccc(S(=O)(=O)Nc2cccc(-c3ccc(N4CCOCC4)nn3)c2)cc1	5	-7	-52	i	-4	/	/	-6
CCCNC(=O)OCC12CC3CC(CC(C3)C1)C2	-2	-2	41	i	/	12	3	-8
COC(=O)c1nnn(-c2nonc2N)c1CSc1ccc(Cl)cc1	5	3	/	i	-2	-8	-18	-6
c1ccc(C(c2ccccc2)N2CCN(Cc3nnnn3C3CCCC3)CC2)cc1	-15	-11	/	i	1	-13	4	-5
O=C(NCc1ccco1)c1nnc(Cc2ccc(F)cc2)o1	4	6	0	i	-15	0	5	-1
c1csc(-c2nn[nH]n2)c1	-3	0	/	i	-5	-9	8	7
COc1ccccc1NS(=O)(=O)c1cc(N)ccc1N1CCCC1	6	1	4	/	-12	/	/	0
CCc1cc2cc3c(cc2nc1SCC(=O)N1CCN(C(=O)c2ccco2)CC1)OCO3	-4	5	/	i	3	1	3	7

Overlap with the part before: five entries, then new ones.
SMILES	MT1-MMP act inh	MT1-MMP act inh RFP	HIV Env fusion	Rce1 inhib	Yeast UUG start	eIF4H FP inh	PABP FP inh	CSC inhib	others
c1ccc(C(c2ccccc2)N2CCN(Cc3nnnn3C3CCCC3)CC2)cc1	-15	-11	/	i	1	-13	4	-5
O=C(NCc1ccco1)c1nnc(Cc2ccc(F)cc2)o1	4	6	0	i	-15	0	5	-1
c1csc(-c2nn[nH]n2)c1	-3	0	/	i	-5	-9	8	7
COc1ccccc1NS(=O)(=O)c1cc(N)ccc1N1CCCC1	6	1	4	/	-12	/	/	0
CCc1cc2cc3c(cc2nc1SCC(=O)N1CCN(C(=O)c2ccco2)CC1)OCO3	-4	5	/	i	3	1	3	7
CCOC(=O)CSc1nc(N)nc(C)c1Br	1	4	/	i	-5	-3	-2	-6
O=C(CCc1nnc2ccc(NCc3ccccc3)nn12)NC1CCCC1	0	1	-57	i	-17	6	0	5
COc1ccc(NC(=S)NCCCN2CCOCC2)cc1	3	4	-11	i	/	-16	-3	-2
COc1ccc(OC)c(NC(=O)C2=C(C)NC(=O)NC2c2cccs2)c1 (configuration not stated)	/	/	-2	i	/	7	-1	-5
O=C(Nc1ccccc1)/C(=C\c1ccc(F)cc1)NC(=O)c1ccco1	-3	-3	-10	/	-7	0	6	-5
COC1CCN(C(=O)c2cc(COc3ccc(-n4cncn4)cc3)on2)CC1	2	-1	-5	i	-23	/	/	-19
COc1ccc2c(c1)[nH]c1c(N3CCN(Cc4ccc5c(c4)OCO5)CC3)ncnc12	25	-15	97*	i	-10	-12	-4	9
COc1cc(C2Nc3ccccc3C(=O)N2c2ccccc2)ccc1O (configuration not stated)	-5	2	/	i	1	0	3	16
Cn1cnnc1SC1CCCCC1NS(=O)(=O)c1ccc(Cl)cc1 (configuration not stated)	3	8	/	i	-4	10	-9	-3
CC1=C(C(=O)OCc2ccc([N+](=O)[O-])cc2)N2C(=O)C(NC(=O)Cc3ccccc3)C2SC1 (configuration not stated)	1	-1	-5	i	-24	17	9	-4
COCCCNC(=O)COc1ccc(S(=O)(=O)NCc2ccccc2)cc1Cl	-1	6	/	i	-14	6	-4	-11
CC(C)(C)[C@H]1C=C(C(=O)N2CCN(Cc3ccc4c(c3)OCO4)CC2)O[C@@H](OCCCCO)C1	8	1	22[16.7 µM]	i	-3&-6	12	0	3
CCc1nc(SCC(=O)NCCc2ccc(OC)c(OC)c2)c2c(=O)n(C)c(=O)n(C)c2n1	-3	2	-40	i	-10	-2	9	-13
CCC(CC)NC(=O)COC(=O)c1ccc2c(c1)C(=O)N(Cc1ccco1)C2=O	2	5	14	i	-13	-11	2	-6
Cc1cc(C)c2nc(-c3ccccn3)cc(C(=O)NCCc3ccc(S(N)(=O)=O)cc3)c2c1	2	6	0	i	-2	11	2	25
CCN(CC(=O)Nc1ccc(NC(C)=O)cc1)CC(=O)Nc1ccccc1C(=O)c1ccccc1	6	5	24	i	6	-15	0	-1
O=c1c2cc(-c3ccccc3)sc2nc2n1N=C(c1ccccc1)CS2	2	-5	2	i	/	-5	-1	19
